Compound activity from PubChem.
PNC assembly inh: inhibitors of perinucleolar compartment assembly; PC3M PTB-GFP, PNC prevalence imaging, 16 h; stronger effect = lower value; activity change (PNC), negative = inhibition, % at 10 µM; 140,000 compounds, 3.1% hits; AID 2417;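 active = readout at or below -70, meaning at least 70% loss of cells showing the perinucleolar compartment, a nuclear body marking cancer cells; inconclusive = readout between -30 and a set limit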;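 also: plate controls were DMSO wells for no effect and camptothecin positive control wells for full effect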
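Compounds are pinned in duplicate onto adhered PC3M cells stably expressing GFP-tagged PTB and incubated 16 h at 37 C. Cells are then fixed, nuclei stained with Hoechst, and PNC-positive cells counted.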
IMPase cell inh: IMPase inhibition in cells. inhibition (IP1 accumulation), % at 46.1 µM. CHO-M1 cells, IP1 accumulation, HTRF TR-FRET ratio. 120,000 tested, under 10 active. P97697; active = well fitted curve in the direction sought with a large enough effect in the signal ratio, not every such curve was filed as active; inconclusive = small, poorly fitted or top-dose-only effect, or a change in a side signal; inactive = no such curve, though single readings can be large or run the other way; the % refers to the signal ratio;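 also: cells stimulated with carbachol in lithium chloride buffer; plate controls were DMSO basal wells for no effect and reference inhibitor wells for full effect; higher means more IMPase inhibition seen as more IP1 and lower FRET ratio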
Target sequence (P97697 whole entry, looked up): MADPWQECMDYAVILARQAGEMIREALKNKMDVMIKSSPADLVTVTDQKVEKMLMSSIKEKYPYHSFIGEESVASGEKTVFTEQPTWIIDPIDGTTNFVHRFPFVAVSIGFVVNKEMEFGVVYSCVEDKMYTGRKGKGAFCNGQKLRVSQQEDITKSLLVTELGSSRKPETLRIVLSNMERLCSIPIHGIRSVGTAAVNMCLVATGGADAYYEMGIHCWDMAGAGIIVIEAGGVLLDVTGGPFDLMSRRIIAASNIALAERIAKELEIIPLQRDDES
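CHO-M1, 2000 cells/well, cultured 16–30 h; cpd up to 46 uM; carbachol (50 uM solution, stimulation buffer w/ 50 mM LiCl, pH 7.4), 30 min 37C; IP-One TR-FRET, 10 min RT; Ex 320/Em 665, 620; Hill-fit AC50.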
12-hLO inh: 12-hLO (ALOX12) enzyme inhibition. 150,000 compounds, 0.12% hits. Potency, µM (highest dose often 57.1 µM), inactives show at the top dose activity change, negative = inhibition, hits mostly inhibitors. P18054. purified 12-hLO, xylenol orange hydroperoxide absorbance; active = well fitted inhibition curve with a large enough effect; inconclusive = small, poorly fitted or top-dose-only effect; also: potency is read from the fitted curve at half-maximal effect; nearly all actives have a fitted effect of over 55% in size; many of its hits are not listed in these tables
Target sequence (P18054 whole entry, looked up): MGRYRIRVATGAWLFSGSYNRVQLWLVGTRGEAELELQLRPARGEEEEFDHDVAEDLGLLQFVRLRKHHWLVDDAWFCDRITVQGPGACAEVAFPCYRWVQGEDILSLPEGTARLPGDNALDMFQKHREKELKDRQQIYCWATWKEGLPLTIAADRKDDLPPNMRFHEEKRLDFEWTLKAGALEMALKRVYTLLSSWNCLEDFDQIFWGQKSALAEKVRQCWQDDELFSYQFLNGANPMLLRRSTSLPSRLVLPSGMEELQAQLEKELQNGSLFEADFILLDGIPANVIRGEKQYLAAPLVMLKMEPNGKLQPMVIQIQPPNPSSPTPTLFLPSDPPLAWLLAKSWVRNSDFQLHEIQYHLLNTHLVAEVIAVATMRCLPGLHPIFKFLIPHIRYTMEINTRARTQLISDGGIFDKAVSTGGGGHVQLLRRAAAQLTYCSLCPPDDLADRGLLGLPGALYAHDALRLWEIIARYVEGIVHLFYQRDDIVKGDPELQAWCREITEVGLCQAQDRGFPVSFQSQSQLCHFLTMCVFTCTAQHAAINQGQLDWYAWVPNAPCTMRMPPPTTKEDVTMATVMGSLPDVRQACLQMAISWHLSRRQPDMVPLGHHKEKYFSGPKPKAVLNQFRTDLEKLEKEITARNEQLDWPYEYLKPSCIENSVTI
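Hydroperoxide output read as Fe(III)-xylenol orange absorbance, 573-to-405 nm ratio, after 30 min reaction with 40 uM arachidonic acid. Enzyme: 150 nM purified human 12hLO, 15 min compound preincubation; 25 mM Hepes pH 7.0, room temperature.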
* marks the source's active call; other numbers are inactive results; [ ] = remark or other dose. Unless noted, % is scaled to controls: 0 for no effect and ±100 for the full control effect.

CC(C)OC(=O)c1cc(=O)[nH]c2ccccc12 was read as PNC assembly inh -6, IMPase cell inh -14 and 12-hLO inh -1%.
Screening CCCCc1ccc(NC(=S)NCc2cccs2)cc1 returned PNC assembly inh 54, IMPase cell inh 6 and 12-hLO inh inconclusive.
For COc1ccc(CC(=O)c2cc(OC)c(OC)cc2CC(=O)O)cc1OC the results were PNC assembly inh -22, IMPase cell inh -5 and 12-hLO inh -1%.
O=C(NCc1ccc2c(c1)OCO2)C1CC(=O)N(CCc2ccccc2)C1 (centres undefined) was read as PNC assembly inh 26, IMPase cell inh 7 and 12-hLO inh 3%.
Cc1ccc2c(c1)N(C(=O)c1ccco1)C(C)(C)c1ssc(=S)c1-2 was read as PNC assembly inh 77, IMPase cell inh 4 and 12-hLO inh -19%.
`CC1=C(C(=O)Nc2ccccc2)C(c2cccs2)n2nnnc2N1` (centres undefined) gave PNC assembly inh inconclusive, IMPase cell inh -2[1.84 µM] and 12-hLO inh 2%.
Cc1cccc2c1N(C(=O)c1ccco1)C(C)(C)c1ssc(=S)c1-2 was read as PNC assembly inh 7, IMPase cell inh -5 and 12-hLO inh 5%.
CCNS(=O)(=O)c1ccc(NC(=O)c2cc(C(F)(F)F)nn2C)cc1 was read as PNC assembly inh 20, IMPase cell inh 7 and 12-hLO inh -9%.
COc1cc(S(=O)(=O)N2CCOCC2)ccc1NC(=O)COC(=O)CC12CC3CC(CC(C3)C1)C2 was read as PNC assembly inh 14, IMPase cell inh -1 and 12-hLO inh -5%.
Screening Cc1nonc1NC(=O)CSc1nnc(-c2ccoc2C)n1CC(C)C returned PNC assembly inh 17, IMPase cell inh 2 and 12-hLO inh -6%.
`O=C(O)c1ccccc1-c1ccc(/C=c2\sc3nc4cc(Br)cnc4n3c2=O)o1` gave PNC assembly inh inconclusive, IMPase cell inh 7 and 12-hLO inh -15%.
`Nc1nnc(SCC(=O)c2ccc3ccccc3c2)s1` gave PNC assembly inh 16, IMPase cell inh -6 and 12-hLO inh 7%.
`O=C(NCc1ccc(Cl)cc1)c1cc(=O)nc2sc(-c3ccccc3)nn12` gave PNC assembly inh -21, IMPase cell inh -6 and 12-hLO inh 1%.
CC(=O)c1c(N2CCCC2)[nH]c(-c2ccccc2)nc1=S was read as PNC assembly inh 3, IMPase cell inh -9 and 12-hLO inh inconclusive.
COc1ccc(NC(C)=O)cc1NC(C)C(=O)Nc1ccccc1F (centres undefined) was read as PNC assembly inh 3, IMPase cell inh 16 and 12-hLO inh 4%.
Screening O=C(Nc1sccc1C(=O)N1CCOCC1)c1cccnc1 returned PNC assembly inh inconclusive, IMPase cell inh -6 and 12-hLO inh 0%.
`O=C(CSc1ccc(Cl)cc1)N1CCC(c2nc3ccccc3s2)CC1` gave PNC assembly inh -5, IMPase cell inh 1 and 12-hLO inh -7%.
Screening CSc1nc2ccc(NC(=O)C3CC(=O)N(Cc4ccccc4)C3)cc2s1 (centres undefined) returned PNC assembly inh -3, IMPase cell inh -4 and 12-hLO inh -5%.
Screening S=c1nn[nH]n1C12CC3CC(CC(C3)C1)C2 returned PNC assembly inh 3, IMPase cell inh -7 and 12-hLO inh -11%.
`Cc1ccc(C(=O)NC(=S)NCC2CCCO2)cc1` (centres undefined) gave PNC assembly inh 12, IMPase cell inh 14 and 12-hLO inh -28%.
`Cn1c(C(=O)NCCC2=CCCCC2)cc2c(=O)n3ccccc3nc21` gave PNC assembly inh -16, IMPase cell inh -11 and 12-hLO inh 0%.
Screening COc1ccc(NC(C)=O)cc1NC(C)C(=O)Nc1cccc2ccccc12 (centres undefined) returned PNC assembly inh 29, IMPase cell inh -4 and 12-hLO inh -10%.
Screening COC(=O)NNC(=O)c1ccc(C)cc1 returned PNC assembly inh inconclusive, IMPase cell inh -10 and 12-hLO inh -3%.
Screening O=C(NCc1ccco1)c1ccc(Cn2c(=O)c3ccccc3n(Cc3cccc(Cl)c3)c2=O)cc1 returned PNC assembly inh 37, IMPase cell inh 2 and 12-hLO inh 4%.
`O=C(NCC1CCCO1)c1ccc2c(c1)C(=O)N(C1CCCCC1)C2=O` (centres undefined) gave PNC assembly inh 48, IMPase cell inh -4 and 12-hLO inh -4%.
For CS(=O)(=O)N1CCc2cc(C(=O)OCC(=O)c3ccccc3)ccc21 the results were PNC assembly inh 41, IMPase cell inh -6 and 12-hLO inh -3%.
Screening O=C(c1ccco1)N(CCC(c1ccccc1)c1ccco1)Cc1ccc(F)cc1 (centres undefined) returned PNC assembly inh -14, IMPase cell inh 12 and 12-hLO inh 1%.
Screening Cc1nnc2sc(-c3ccccn3)nn12 returned PNC assembly inh -22, IMPase cell inh 1 and 12-hLO inh -2%.
CC(C)C[C@H](NC(=O)OC(C)(C)C)C(=O)N1CCC(C(=O)O)CC1 was read as PNC assembly inh 37, IMPase cell inh -2 and 12-hLO inh 4%.
For FC(F)(F)c1cccc(CN2CCCCCC2)c1 the results were PNC assembly inh 24, IMPase cell inh -7 and 12-hLO inh -5%.
CC1(C)SC(=S)N(Cc2ccc3c(c2)OCO3)C1N(O)C(=O)NC1CCCCC1 (centres undefined) was read as PNC assembly inh inconclusive, IMPase cell inh 6 and 12-hLO inh -4%.
COc1ccc(NC(C)=O)cc1NC(C)C(=O)Nc1ccc(F)cc1 (centres undefined) was read as PNC assembly inh 14, IMPase cell inh 4 and 12-hLO inh 1%.
CN(C)c1oc(-c2ccccc2)nc1C#N was read as PNC assembly inh -29, IMPase cell inh -2 and 12-hLO inh 5%.
O=C(Nc1ccc2c(c1)Cc1ccccc1-2)c1ccco1 was read as PNC assembly inh -6, IMPase cell inh 18 and 12-hLO inh -1%.
For CCSC1=NC(C)(C)C=C(/C=C/c2ccc(Cl)cc2Cl)N1 the results were PNC assembly inh -11, IMPase cell inh 1 and 12-hLO inh inconclusive.
CC(Sc1nnc(N)s1)c1ccccc1Cl (centres undefined) was read as PNC assembly inh 11, IMPase cell inh 4 and 12-hLO inh -2%.
For CCC(NS(=O)(=O)c1c(C)[nH]c(=O)[nH]c1=O)C12CC3CC(CC(C3)C1)C2 (centres undefined) the results were PNC assembly inh 36, IMPase cell inh 8 and 12-hLO inh -4%.
COc1ccc(OCC(=O)Nc2cccc(OC)c2)cc1 was read as PNC assembly inh 10, IMPase cell inh 9 and 12-hLO inh 0%.
N#Cc1c(Oc2ccc3ccccc3c2)sc(C(=O)c2ccccc2)c1N was read as PNC assembly inh 7, IMPase cell inh 8 and 12-hLO inh -13%.
For COc1ccc(C(=O)Oc2cc(/C=N/NC(N)=S)ccc2OC)cc1 the results were PNC assembly inh -13, IMPase cell inh -10 and 12-hLO inh inconclusive.
`Fc1ccc(-c2cc3nc(-c4ccccc4)cc(N4CCN(CCN5CCOCC5)CC4)n3n2)cc1` gave PNC assembly inh -26, IMPase cell inh 8 and 12-hLO inh -12%.
For Nc1ccc2c(c1)C(=O)N(CCCC(=O)O)C2=O the results were PNC assembly inh -18, IMPase cell inh -5 and 12-hLO inh 6%.
Screening Fc1ccccc1Cn1nnc2c(NCc3ccccn3)ncnc21 returned PNC assembly inh 28, IMPase cell inh 6 and 12-hLO inh 5%.
For COc1ccc(C(C#N)Nc2ccccc2)cc1 (centres undefined) the results were PNC assembly inh inconclusive, IMPase cell inh -5 and 12-hLO inh 8%.
Cc1no[n+]([O-])c1COc1ccccc1/C=C1\NC(=S)NC1=O was read as PNC assembly inh inconclusive, IMPase cell inh -8 and 12-hLO inh -16%.
COc1ccc2[nH]c(C)c(C(=O)CN3CCN(C/C=C/c4ccccc4)CC3)c2c1 was read as PNC assembly inh inconclusive, IMPase cell inh inconclusive and 12-hLO inh -5%.
`O=C(O)c1cc(-c2ccccc2Cl)n[nH]1` gave PNC assembly inh 8, IMPase cell inh 0 and 12-hLO inh 1%.
CC1CCCCN1C(=O)CN1C(=O)CN(C)C(=O)c2ccccc21 (centres undefined) was read as PNC assembly inh inconclusive, IMPase cell inh 4 and 12-hLO inh 8%.
CN1c2ccccc2Oc2c(c(=O)n(C)c(=O)n2C)C1c1cccc([N+](=O)[O-])c1 (centres undefined) was read as PNC assembly inh inconclusive, IMPase cell inh 3 and 12-hLO inh 0%.
C(=C/c1ccnc2nc(SC/C=C/c3ccccc3)nn12)/c1ccccc1 was read as PNC assembly inh -26, IMPase cell inh -10 and 12-hLO inh 1%.
Screening CCOc1ccccc1CN(Cc1ccco1)S(=O)(=O)c1ccc(-n2cnnn2)c(OC)c1 returned PNC assembly inh inconclusive, IMPase cell inh 9 and 12-hLO inh -5%.
Screening CCCOc1ccc(C(C)=O)cc1CSc1nc(O)cc(=O)[nH]1 returned PNC assembly inh -24, IMPase cell inh 0 and 12-hLO inh -2%.
`COc1cc2c(cc1OC)CN(C(=O)COc1ccc(C#N)cc1)CC2` gave PNC assembly inh inconclusive, IMPase cell inh 4 and 12-hLO inh -2%.
CCCCOc1ccccc1-c1cc(C(=O)O)[nH]n1 was read as PNC assembly inh inconclusive, IMPase cell inh 1 and 12-hLO inh 8%.
`N/C(=N\OC(=O)c1ccco1)c1cccc(Br)c1` gave PNC assembly inh -19, IMPase cell inh -4 and 12-hLO inh -7%.
CCOc1ccccc1N1C(=O)CC(N(O)c2ccccc2)C1=O (centres undefined) was read as PNC assembly inh inconclusive, IMPase cell inh 8 and 12-hLO inh -20%.
For COc1ccc(-c2cnn(C3CCS(=O)(=O)C3)c2N)cc1 (centres undefined) the results were PNC assembly inh inconclusive, IMPase cell inh -2 and 12-hLO inh 5%.
`Cn1c(=NC(=O)CSCC(=O)N2CCOCC2)sc2ccccc21` gave PNC assembly inh inconclusive, IMPase cell inh -1 and 12-hLO inh 11%.
Screening CS(=O)(=O)N(CC(=O)Nc1ccc2c(c1)OCCO2)Cc1ccccc1 returned PNC assembly inh inconclusive, IMPase cell inh 1 and 12-hLO inh 3%.
For COC(=O)c1ccc(OC(=O)c2nn(C)cc2Cl)c(OC)c1 the results were PNC assembly inh -9, IMPase cell inh 5 and 12-hLO inh -9%.
Screening Cc1sc2nc(-c3cccs3)nc(N3CCCN(C)CC3)c2c1C returned PNC assembly inh inconclusive, IMPase cell inh 1 and 12-hLO inh 5%.
Screening COc1cc2c(cc1OC)CN(C(=O)CCCOc1ccc(Cl)cc1Cl)CC2 returned PNC assembly inh inconclusive, IMPase cell inh 4 and 12-hLO inh -7%.
`CCc1nnc(NC(=O)C2CC(=O)N(CCc3ccccc3)C2)s1` (centres undefined) gave PNC assembly inh 31, IMPase cell inh 5 and 12-hLO inh 1%.
`CCc1ccc(N2C(=O)c3sc4nnc(-c5ccccc5)c(=O)n4c3C2=O)cc1` gave PNC assembly inh -20, IMPase cell inh 7 and 12-hLO inh -12%.
Screening CC(=O)Oc1ccc2c(c1)OC(c1ccccc1)CC21CC(C)(C)NC(=S)N1 (centres undefined) returned PNC assembly inh inconclusive, IMPase cell inh 3 and 12-hLO inh -13%.
For CCCCCCCC(=O)N/N=C(/C)c1c(O)cc(C)oc1=O the results were PNC assembly inh 2, IMPase cell inh -1 and 12-hLO inh -14%.
`CC(C)CCNC(=O)NC(=O)COC(=O)/C=C/c1cnc2ccccc2n1` gave PNC assembly inh -23, IMPase cell inh -1 and 12-hLO inh 4%.
For COc1ccc(C(=O)Nc2nnc(-c3ccccc3)o2)cc1OC the results were PNC assembly inh -13, IMPase cell inh 3 and 12-hLO inh -10%.
`CCOc1cccc(NC(=O)C2CC(=O)N(C)C2)c1` (centres undefined) gave PNC assembly inh 47, IMPase cell inh 6 and 12-hLO inh -3%.
For c1ccc2c(c1)CCCN2Cc1nnnn1C1CCCC1 the results were PNC assembly inh -24, IMPase cell inh 2 and 12-hLO inh 4%.
For COc1ccc(C(=O)Nc2ccc(S(=O)(=O)N3CCCC3)cc2)c(OC)c1 the results were PNC assembly inh -24, IMPase cell inh 6 and 12-hLO inh 1%.
For Cc1cc(C)c(S(=O)(=O)Nc2ccccc2C(F)(F)F)c(C)c1 the results were IMPase cell inh 1 and 12-hLO inh -11%.

A section from further up:
`CCOc1cccc(NC(=O)C2CC(=O)N(C)C2)c1` (centres undefined) gave PNC assembly inh 47, IMPase cell inh 6 and 12-hLO inh -3%.
For c1ccc2c(c1)CCCN2Cc1nnnn1C1CCCC1 the results were PNC assembly inh -24, IMPase cell inh 2 and 12-hLO inh 4%.
For COc1ccc(C(=O)Nc2ccc(S(=O)(=O)N3CCCC3)cc2)c(OC)c1 the results were PNC assembly inh -24, IMPase cell inh 6 and 12-hLO inh 1%.
For Cc1cc(C)c(S(=O)(=O)Nc2ccccc2C(F)(F)F)c(C)c1 the results were IMPase cell inh 1 and 12-hLO inh -11%.

These rows are one share of the data, so the mix of outcomes need not match the whole.
